From PubChem BioAssay
NS1 inh = qHTS Assay for Inhibitors of Influenza NS1 Protein Function. S. cerevisiae slowed by influenza A NS1, growth recovery by OD600. Potency, µM (top dose mostly 46.1 µM), inactives show top-dose activity, positive = more growth. 0.4% of 270,000 active. AID 2326, 2010; active means well fitted rising curve with a large enough effect; inconclusive means small, poorly fitted or top-dose-only effect; inactive means no such curve, though single readings can be large or run the other way; further: nearly all actives have a fitted effect of over 50% in size
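Growth recovery, yeast-based: influenza A NS1 expressed in S. cerevisiae causes slow growth, and suppressors are detected by OD600. The parent strain without NS1 is used as positive control.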
SARS PLP yeast = qHTS of Yeast-based Assay for SARS-CoV PLP; S. cerevisiae expressing SARS-CoV PLpro, growth rescue; control for the full effect not named in the record; Potency, µM (titrated, usually from 32.9 µM), for inactives: at the top dose activity, positive = growth rescue; 0.19% of 330,000 active; AID 485353, 2010; active means well fitted rising curve with a large enough effect; inconclusive means small, poorly fitted or top-dose-only effect; inactive means no such curve, though single readings can be large or run the other way; further: 0% is about no effect; nearly all actives have a fitted effect of over 55% in size; growth read by luminescence after 48 h
RE007 growth inh = qHTS Assay for Inhibitors of the HIV-1 protein Vpr. Potency, µM (top dose mostly 92.2 µM), inactives show at the top dose activity change, negative = less growth. 0.21% of 360,000 active. S. pombe RE007 Vpr strain, BacTiter-Glo ATP luminescence, 24 h; control for the full effect not named in the record; active = well fitted falling curve with a large enough effect; inconclusive = small, poorly fitted or top-dose-only effect; inactive = no such curve, though single readings can be large or run the other way;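 further: on the % scale 0 is the no-effect control and ±100 the full control effect; nearly all actives have a fitted effect of over 50% in size; the assay follows cell death caused by Vpr and the record does not say whether a fall means rescue or toxicity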
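Fission yeast strain RE007, carrying one chromosomally integrated HIV-1 vpr copy, was seeded at OD 0.01 in PMG+AL medium with 23 nL pinned compound. After 24 h at 30 °C and 99% humidity, viability was read by BacTiter-Glo luminescence.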
Lassa entry inh = qHTS for Inhibitors of binding or entry into cells for Lassa Virus. Lassa virus pseudotype entry inhibition, cell reporter; control for the full effect not named in the record. Potency, µM (highest dose often 37.9 µM), inactives show at the top dose activity change, negative = inhibition, usual class: inhibitors. 1.2% of 300,000 active; active means well fitted inhibition curve with a large enough effect; inconclusive means small, poorly fitted or top-dose-only effect, or effect the other way; inactive means flat fitted curve, though single readings scatter; tested in HEK293 cells; further: on the % scale 0 is the no-effect control and ±100 the full control effect; nearly all actives have a fitted effect of over 50% in size; luciferase read-out
2A StopGo = High Throughput Screening for Foot and Mouth Disease Virus Antivirals | Potency, µM (highest dose often 57.9 µM), inactives show at the top dose signal change, negative = less light | AID 1159524, 2015 | 1.2% of 410,000 active | human cells with a luciferase reporter of 2A StopGo recoding; control for the full effect not named in the record; active = well fitted falling curve with a large enough effect; inconclusive = small, poorly fitted or top-dose-only effect; inactive = no such curve, though single readings can be large or run the other way; tested in HEK293T cells; further: on the % scale 0 is the no-effect control and ±100 the full control effect; nearly all actives have a fitted effect of over 45% in size; luciferase light after 4 h
Cruzain inh Det = qHTS Assay for Promiscuous and Specific Inhibitors of Cruzain (with detergent); Cruzipain (Trypanosoma cruzi), P25779; purified cruzain, Z-FR-AMC fluorescence, 0.01% Triton; Potency, µM, for the others: max response, negative = inhibition, hits mostly inhibitors; 0.43% of 200,000 active; AID 1478, 2009;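 further: plate controls were neutral wells for no effect and buffer without enzyme for full effect; nearly all actives have a fitted effect of over 40% in size; top concentration of the series not given in the record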
Target sequence (P25779 123-467 limits assumed): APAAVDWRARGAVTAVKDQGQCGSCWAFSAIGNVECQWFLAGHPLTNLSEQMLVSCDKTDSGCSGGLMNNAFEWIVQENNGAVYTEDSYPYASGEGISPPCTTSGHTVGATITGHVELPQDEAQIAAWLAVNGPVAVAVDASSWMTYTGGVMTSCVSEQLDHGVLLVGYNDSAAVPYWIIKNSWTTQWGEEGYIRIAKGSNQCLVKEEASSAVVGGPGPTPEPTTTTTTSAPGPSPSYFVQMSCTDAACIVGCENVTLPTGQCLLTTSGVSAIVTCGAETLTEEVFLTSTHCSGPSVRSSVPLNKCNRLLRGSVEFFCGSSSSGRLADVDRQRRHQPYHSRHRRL
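Enzyme 1.5 nM, Z-FR-AMC 2 uM, NaOAc 100 mM pH 5.5, DTT 5 mM, Triton X-100 0.01%; 15 min RT compound preincubation; kinetic ex360/em450, 60 s delta.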
Marburg entry inh = qHTS for inhibitors of binding or entry into cells for Marburg Virus | Potency, µM (titrated, usually from 37.8 µM), inactives show at the top dose activity change, negative = inhibition, usual class: inhibitors | 1.8% of 300,000 active | AID 540276, 2011 | Marburg virus pseudotyped entry inhibition, cell reporter; control for the full effect not named in the record; about a third of the inactives were read at about 46 µM; active = well fitted inhibition curve with a large enough effect; inconclusive = small, poorly fitted or top-dose-only effect, or effect the other way; inactive = flat fitted curve, though single readings scatter; tested in HEK293 cells; about a fifth of its hits are not listed in these tables; further: on the % scale 0 is the no-effect control and ±100 the full control effect; luciferase read-out
Cruzain inh noDet = qHTS Assay for Promiscuous and Specific Inhibitors of Cruzain (without detergent) | AID 1476, 2009 | 2.3% of 200,000 active | purified cruzain, Z-FR-AMC fluorescence, no detergent | Potency, µM, inactives show max response, negative = inhibition, most hits filed as inhibitors;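 further: plate controls were enzyme without inhibitor for no effect and buffer without enzyme for full effect; nearly all actives have a fitted effect of over 40% in size; top concentration of the series not given in the record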
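Detergent-free condition (0.00005% Triton X-100) in acetate buffer pH 5.5 with DTT. 1.5 nM enzyme and compound were pre-mixed 15 min, then 2 uM Z-FR-AMC substrate added; reaction progress from fluorescence change between first and third reads (60 s).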
Starred values were filed as active, the others as inactive; ? = inconclusive; . = no result given; & = joins results of further samples; [ ] = another dose, or the depositor's remark. Unless noted, the call rests on the fitted dose curve; in most records, active means well fitted curve in the direction sought with a large enough effect; inconclusive means small, poorly fitted or top-dose-only effect, or another doubt; inactive means no such curve, though single readings can be large; an effect the other way counts as inactive or inconclusive. Potency means the concentration at half of the fitted maximal effect. The order is random. Share with any hit: about 4.7%.

SMILES | NS1 inh | SARS PLP yeast | RE007 growth inh | Lassa entry inh | 2A StopGo | Cruzain inh Det | Marburg entry inh | Cruzain inh noDet
O=C(O)C1C2CCC(O2)C1C(=O)NCc1ccncc1 (stereo not given) | 5.2% | 1.4% | 19.3% | -7.5% | -3.1% | 4.5% | 2.9% | -3.8%
COC(=O)CCCCC1SCC(NC(=O)c2ccccc2)C1=O (stereo not given) | -7.1% | -1.2% | -18.4% | . | -13.2% | . | . | .
c1coc(CNC2C3CC4CC(C3)CC2C4)c1 (stereo not given) | 1.2% | -0.5% | 17.0% | ? | 5.5% | 4.5% | 8.4% | -0.3%
CCCn1cnc2cc(NCc3ccccn3)ccc21 | -8.5% | -10.6% | -6.4% | . | 25.0% | -2.9% | . | -1.5%
CCN1CCN(c2sc(S(C)(=O)=O)nc2S(=O)(=O)c2ccc(C)cc2)CC1 | 5.3% | -0.4% | 7.2% | . | 8.3% | . | . | .
CC(C(=O)O)c1cccc(Oc2ccccc2)c1 (stereo not given) | . | . | 13.1% | . | -24.5%&4.2% | 3.5% | . | 3.1%
CCS(=O)(=O)Nc1cccc(C2=NN(S(=O)(=O)c3ccc(C)cc3)C(c3cccs3)C2)c1 (stereo not given) | 12.6µM* | -5.1% | 23.7% | ? | 22.6% | -3.6% | -2.7% | -29.4%
CC(N=C1NS(=O)(=O)c2ccccc21)C(=O)NCCCc1ccccc1 (stereo not given) | -3.0% | -0.1% | 0.5% | ? | 6.7% | . | 10.6% | .
Cc1c(Cl)cccc1NC(=O)C1Cc2ccccc2CN1C(=O)c1ccccc1 (stereo not given) | 6.3% | ? | -4.9% | 8.8% | -0.4% | -3.4% | ? | -7.2%
COc1cccc(Cn2c(CNS(=O)(=O)c3ccc(Cl)s3)nc3cccnc32)c1 | . | . | . | 0.0%[46.1 µM] | 48.7%[activator] | -7.3% | . | -10.5%
O=C(NCc1ccc2c(c1)OCO2)NC1CCCCC1 | 7.5% | 0.5% | 2.3% | -11.4%[46.1 µM] | 27.6% | . | -3.6%[46.1 µM] | .
Cc1ccc(-n2c(SCC(=O)Nc3cccc(F)c3)nc3c(oc4ccccc43)c2=O)cc1C | . | . | . | . | -4.2% | -2.2% | ? | 12.6µM*
CC(=O)c1c(C)oc2ccc(NS(=O)(=O)c3ccc(C(C)C)cc3)cc12 | . | . | . | -3.5%[46.1 µM] | -22.4% | -9.8% | -33.4%[46.1 µM] | 8.0%
COc1ccccc1CN=Cc1[nH]c2ccc(Br)c(Cl)c2c1O | -80.4% | -34.0% | -17.0% | -16.1% | -3.1% | -9.8% | -28.2% | ?
CCc1ccccc1N(CC(=O)NCc1ccc(OC)cc1)C(=O)CCC(=O)Nc1ccccn1 | -6.7% | -0.6% | 1.8% | ? | -19.5% | . | -4.3%[46.1 µM] | .
Cn1c(=O)c(=O)n(C)c2cc(C(=O)NCc3ccccc3Cl)ccc21 | . | . | . | . | -20.9% | -4.0% | -9.5%[46.1 µM] | 2.4%
O=C(Nc1ccccc1)OCCN1CCN(Cc2ccccc2)CCC1=O | 17.8% | 6.0% | 13.9% | -9.6% | -16.0% | 0.0% | 32.7% | 1.0%
COC1=CCC2([N+](=O)[O-])CN(CCO)CC1([N+](=O)[O-])C2 (stereo not given) | -0.8% | 29.8% | -13.7% | -7.8% | -19.1% | 6.1% | ? | -4.9%
Cc1cccc(OCc2nnc(SCC(=O)N(C)C3CCCCC3)o2)c1 | . | -1.8% | 7.6% | 13.5% | -16.1% | . | 6.4%[46.1 µM] | .
Cc1cc(NC(=O)c2cc(C3CC3)on2)no1 | -5.2% | -0.2% | 7.9% | . | 61.5%[activator] | . | . | .
O=C(O)/C=C/C(=O)N1CCN(c2ccccc2F)CC1 | 2.1% | -16.3% | 11.9% | 13.4% | -20.1% | 1.2% | ? | 2.2%
CC(C)n1c(/N=C/c2c[nH]c3ccccc23)nc2ccccc21 | -4.3% | -3.2% | -11.2% | 3.3% | . | -11.2% | 1.2% | 5.7%
COc1ccc(NC2=NCC(=O)N2c2ccccc2)c(OC)c1 | -0.4% | 4.3% | 3.9% | 5.8% | 1.5% | 3.2% | 17.5% | 3.5%
O=C(Cn1c2[n+](c3ccc(C(F)(F)F)cc31)CCCCC2)Nc1ccccc1 | 19.6% | 8.6% | 0.2% | -10.5% | 2.3% | 0.9% | -7.0% | -12.7%
CCCCOP(=O)(c1ccc(N(C)C)cc1)C(O)c1c(Cl)cccc1Cl (stereo not given) | -9.2% | -2.3% | 7.6% | -2.8% | 71.4%[activator] | . | 2.0% | .

Laid out differently: results already given
Values run as follows: NS1 inh	SARS PLP yeast	RE007 growth inh	Lassa entry inh	2A StopGo	Cruzain inh Det	Marburg entry inh	Cruzain inh noDet
Cc1cc(NC(=O)c2cc(C3CC3)on2)no1
 : -5.2%	-0.2%	7.9%	.	61.5%[activator]	.	.	.
O=C(O)/C=C/C(=O)N1CCN(c2ccccc2F)CC1
 : 2.1%	-16.3%	11.9%	13.4%	-20.1%	1.2%	?	2.2%

As entered above:
Cc1c(Cl)cccc1NC(=O)C1Cc2ccccc2CN1C(=O)c1ccccc1 (stereo not given) – Cruzain inh Det: -3.4%
CC(=O)c1c(C)oc2ccc(NS(=O)(=O)c3ccc(C(C)C)cc3)cc12 – Cruzain inh Det: -9.8%

Later entries:
SMILES | NS1 inh | SARS PLP yeast | RE007 growth inh | Lassa entry inh | 2A StopGo | Cruzain inh Det | Marburg entry inh | Cruzain inh noDet
O=C(COc1ccc2ccc(=O)oc2c1)N1CCc2ccccc21 | ? | 0.2% | 4.7% | 17.6%[46.1 µM] | 18.8% | . | ? | .
O=C(c1ccco1)N1N=C(c2cccs2)CC1c1cc([N+](=O)[O-])ccc1O (stereo not given) | -4.0% | 18.2% | -3.2% | . | 22.3% | . | . | .
Cc1cc(NC(=O)CSc2nnc(-c3ccc([N+](=O)[O-])cc3)o2)no1 | -9.7% | 2.5% | 1.9% | . | -14.4% | . | . | .
COC(=O)c1ccccc1NC(=O)Cn1c(=O)n(CCCC(=O)NCc2ccccc2Cl)c(=O)c2ccccc21 | . | . | . | 11.1%[46.1 µM] | -23.8% | -0.7% | 15.5%[46.1 µM] | -0.2%
CC(=O)c1ccc(S(=O)(=O)Nc2cccc(S(=O)(=O)NC3=NCCC3)c2)cc1 | 1.5% | 10.2% | -5.7% | 27.9% | 19.1% | -0.3% | ? | 3.7%
Clc1ccc(-c2nnn3c2nc(NC2CCCCC2)c2ccccc23)cc1 | . | . | . | -9.6%[46.1 µM] | -13.0% | 1.1% | 6.5%[46.1 µM] | 7.8%
CCN(CC(=O)Nc1c(F)cccc1F)C(=O)CCNS(=O)(=O)c1ccc(C)c(C)c1 | . | -5.4% | -8.3% | -1.8%[46.1 µM] | 0.4% | . | ? | .
CC(C)CN(C(=O)COC(=O)c1cccc2ccccc12)c1c(N)n(Cc2ccccc2)c(=O)[nH]c1=O | . | . | 4.9% | -23.4% | -4.9% | . | 14.7% | .
COc1ccc(/C=N/NC(=O)c2ccc(O)cc2O)cc1CSc1ccccn1 | ? | 8.4% | -7.6% | 0.6% | -19.9% | -5.8% | -0.3% | 6.7%
CCN(C(=O)COC(=O)[C@H](C)N=C1NS(=O)(=O)c2ccccc21)C1CCS(=O)(=O)C1 (stereo not given in full) | . | -3.2% | -13.1% | 6.8% | -4.1% | . | 7.5% | .
CC1Cc2ccccc2N1C(=O)COC(=O)C1(c2ccccc2F)CCCC1 (stereo not given) | -7.6% | -4.2% | -5.7% | ? | ? | -7.7% | ? | 1.1%
COc1ccc(OC)c(NC(=O)Cn2cc(C(=O)c3cccs3)c3ccccc32)c1 | . | . | . | -18.3%[46.1 µM] | -16.9% | -8.2% | -7.7%[46.1 µM] | ?
CN1CCc2c(OCC(=O)N3N=C(c4cccs4)CC3c3ccc(F)cc3)cccc2C1=O (stereo not given) | 12.7% | -2.7% | 12.3% | -12.5% | ? | -8.9% | ? | -29.8%
Cc1ccc(-n2ncc3c(=O)n(CC(=O)N(C(C)C)C(C)C)cnc32)cc1 | 1.4% | -0.7% | 8.4% | . | -8.1% | . | . | .
CSc1ccc(C(=O)NC2CCSc3ccccc32)cc1 (stereo not given) | -1.9% | 1.1% | 5.5% | -24.7% | 20.1% | . | -27.1%[46.1 µM] | .
CCOc1cc(N2CCOCC2)c(OCC)cc1NC(=O)c1cc(-c2ccco2)nc2ccccc12 | -31.0% | 3.0% | -22.5% | ? | . | -1.9% | 16.4µM* | ?
COc1ccc(NS(=O)(=O)c2ccc(OC)c(N(C)S(=O)(=O)c3ccc(Cl)cc3)c2)cc1 | 22.5% | -4.4% | 6.4% | ? | . | -1.1% | . | -20.8%
CCc1cc2c(=O)[nH]c(Cc3ccc(Cl)cc3)nc2s1 | 0.8% | 2.8% | -9.4% | ? | -21.9% | 5.1% | -16.7% | -9.6%
Cn1c(N)c(C(=O)COC(=O)c2nc(Cl)ccc2Cl)c(=O)n(C)c1=O | 0.8% | -0.3% | -4.5% | 4.3%[46.1 µM] | -5.7% | . | 15.8%[46.1 µM] | .
CCCC1CCC(c2nc(-c3cccnc3)no2)CC1 (stereo not given) | -7.1% | 5.0% | 17.0% | 13.1% | 45.4%[activator] | -2.8% | ? | 12.1%
COc1ccc(CCN2CCCC(CN(C)C(=O)c3ccoc3C)C2)cc1 (stereo not given) | -7.1% | -1.0% | ? | -10.3% | 63.3%[activator] | . | 0.9% | .
CCNC(=O)NC(=O)c1csc([N+](=O)[O-])c1 | 1.3% | -1.1% | -6.3% | 15.0% | 3.8% | . | 3.9% | .
C=CCOc1ccc2ccccc2c1CNCCCN1CCOCC1 | 2.6% | 4.4% | 4.4% | ? | -20.4% | 5.7% | ? | 9.5%
CC1(C(=O)N2CCC(CC3CC(c4cccc(Br)c4)=NO3)(C(=O)NCC3CCCCC3)CC2)CC1 (stereo not given) | 26.2% | 8.7% | -2.5% | . | ? | . | . | .
